FPR binder – ligands of human FPR, also counter-screen for FPRL1 ligands. P21462. FPR-expressing cells, fluorescent ligand binding, flow cytometry. inhibition, %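 (tested at 6.7 µM)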. 0.74% of 24,000 active. AID 440;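 also: 0% = buffer wells and 100% = receptor blocker peptide wells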
Target sequence (P21462 whole entry, looked up): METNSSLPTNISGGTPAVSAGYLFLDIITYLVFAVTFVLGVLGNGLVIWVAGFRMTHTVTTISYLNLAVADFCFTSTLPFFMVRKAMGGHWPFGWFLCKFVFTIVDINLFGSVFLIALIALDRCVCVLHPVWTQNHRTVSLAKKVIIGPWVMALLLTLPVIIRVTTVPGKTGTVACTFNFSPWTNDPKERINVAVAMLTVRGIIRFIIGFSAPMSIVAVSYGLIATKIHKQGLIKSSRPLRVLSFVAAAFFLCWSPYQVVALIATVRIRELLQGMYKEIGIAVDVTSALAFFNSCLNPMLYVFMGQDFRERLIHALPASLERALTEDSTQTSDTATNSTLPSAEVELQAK
VCAM-1 augmentation – enhancers of VCAM-1 display on endothelial cells, imaging, high-content imaging, pooled HUVEC, TNFa stimulus (AID 457); 0.2% of 10,000 active; Pooled HUVEC, TNFa-induced VCAM-1 immunofluorescence imaging; hits of this screen are not shown here; calls only;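 active = a top-ranked rise in VCAM-1 staining upheld on image or statistical review; inactive = the rest, including candidates rejected on review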;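 also: compounds tested at 5 µM in the well; cells exposed to compound for 24 hours before fixing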
VCAM-1 down – inhibitors of TNFa-induced VCAM-1 surface display, cell-based, plate reader, pooled HUVEC, TNFa stimulus (AID 454); HUVEC TNFa-induced VCAM-1 surface immunofluorescence, plate reader; numbers were filed only for top-ranked candidate wells; inhibition, % at 5 µM; 0.2% of 10,000 active;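 active = compound among top-ranked inhibitors of TNF-induced VCAM-1 adhesion protein staining, with the hit upheld by image or statistical review; inactive = the rest, including hits rejected on review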;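 also: 0% = TNFa with vehicle and 100% = cells without TNFa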
FPRL1 binder – human FPRL1 ligand, with FPR counter-screen; P25090; FPRL1-expressing cells, fluorescent ligand binding inhibition, flow cytometry; inhibition, %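 (tested at 6.7 µM)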; 0.3% of 24,000 active; AID 441;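 also: 0% = buffer alone and 100% = receptor blocker peptide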
Target sequence (P25090 whole entry, looked up): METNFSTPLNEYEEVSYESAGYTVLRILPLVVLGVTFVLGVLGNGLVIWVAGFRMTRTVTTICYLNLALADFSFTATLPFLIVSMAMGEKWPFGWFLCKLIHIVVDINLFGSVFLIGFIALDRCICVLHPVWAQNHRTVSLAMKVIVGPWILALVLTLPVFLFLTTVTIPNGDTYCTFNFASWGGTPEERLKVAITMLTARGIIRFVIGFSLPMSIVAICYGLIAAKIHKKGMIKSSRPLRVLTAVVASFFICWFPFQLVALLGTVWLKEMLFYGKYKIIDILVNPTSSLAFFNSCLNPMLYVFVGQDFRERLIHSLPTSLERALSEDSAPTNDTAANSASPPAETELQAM
VCAM-1 down imaging – inhibitors of TNFa-induced VCAM-1 surface display, imaging, high-content imaging, pooled HUVEC, TNFa stimulus (AID 456); inhibition, % at 5 µM; hits with a dose series show IC50 in µM; 0.2% of 10,000 active; HUVEC TNFa-induced VCAM-1 surface expression, immunofluorescence imaging; numbers were filed only for top-ranked candidate wells;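 active = top tenth filtered wells with inhibition above zero that passed visual or statistical confirmation; inactive = the rest, including hits rejected on review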;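 also: 0% = stimulated vehicle wells and 100% = unstimulated cells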
* = called active by the depositor; i = inactive; . = no result given.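 The calls were made as follows, unless noted: active = mean above 30%; inconclusive = self-fluorescent; inactive = the rest.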

Compound	FPR binder	VCAM-1 augmentation	VCAM-1 down	FPRL1 binder	VCAM-1 down imaging
COc1ccc(/C(O)=C2/C(=O)C(=O)N(CC3CCCO3)C2c2cccc(OC)c2)cc1 (centres undefined)	6	i	i	-2	i
CCOC(=O)N1CCN(C(=O)c2ccc(S(=O)(=O)c3ccc(C)cc3)c(NC(C)=O)c2)CC1	-7	.	.	-1	.
CCOC(=O)c1sc2nc(N3CCCC3)c3c(c2c1N)CC(C)(C)OC3	5	i	i	-3	i
CC(=O)c1ccc(N2CCN(C(=O)c3cc4c(=O)n(C)c5ccccc5c4n3C)CC2)cc1	-4	.	.	5	.
COc1ccc(N2CCN(c3ccc(NC(=O)c4ccc5c(c4)OCO5)cc3C#N)CC2)cc1	1	.	.	-5	.
Cc1onc(-c2ccccc2Cl)c1C(=O)N(C)C1CCCCC1	6	.	.	2	.
Cn1c2c(c(=O)n(C)c1=O)C(CC(=O)Nc1ccccc1)C(=O)N2 (centres undefined)	4	i	i	-3	i
COc1cccc(C2N(c3ccc(Cl)cc3)C(=O)C3CCCN32)c1 (centres undefined)	-11	.	.	-4	.
COC(=O)C1=C(N)OC2=C(C(=O)CCC2)C1c1cccs1 (centres undefined)	12	i	i	24	i
O=C1C(c2ccc(F)cc2)N(Cc2ccc3c(c2)OCO3)C(=O)CN1C1CCCC1 (centres undefined)	6	.	.	6	.
CCOC(=O)c1sc2nc(SCC#N)n(CC3CCCO3)c(=O)c2c1C (centres undefined)	-1	.	.	-3	.
O=C(NCCN1CCOCC1)c1cc(-c2cccs2)on1	-1	.	.	-1	.
CCc1ccccc1NS(=O)(=O)c1ccc2[nH]cc(C(=O)NCC3CCCO3)c(=O)c2c1 (centres undefined)	0	.	.	0	.
O=C(NCc1cccnc1)c1ccc2c(c1)OCO2	-3	i	i	16	i
CCOC(=O)CS(=O)(=O)c1nc(-c2ccccc2)cc(C(F)(F)F)n1	-11	i	i	4	i
O=c1[nH]c(=O)n(CCOc2ccc(Cl)cc2)cc1Br	-1	.	.	-2	.
OC(CCCN1CCC(O)(c2ccc(Cl)cc2)CC1)c1ccc(F)cc1 (centres undefined)	6	i	i	0	i
CCN1CCCC1CNC(=O)Cn1cccc1C(=O)c1ccccc1 (centres undefined)	-2	.	.	13	.
Cc1cc(Cl)cc2c1NC(=O)[C@]21[C@@H]2C(=O)N(Cc3ccccc3)C(=O)[C@@H]2[C@@H]2CCCN21	3	i	i	-4	i
COc1ccc(N(CC(=O)N2CC=C(c3ccccc3)CC2)S(=O)(=O)c2c(C)noc2C)cc1	0	.	.	-9	.
COc1cc(C2C3=C(CC(C)(C)CC3=O)Nc3c2c(=O)[nH]c(=O)n3Cc2ccccc2)ccc1O (centres undefined)	-7	i	i	-2	i
O=C(NCCC1=CCCCC1)C1CCCN(S(=O)(=O)c2cnc[nH]2)C1 (centres undefined)	0	.	.	1	.
CCC(C)Oc1ccccc1C1CC(=O)NC2=C1C(=O)CCC2 (centres undefined)	3	.	.	-4	.
CCc1cc2c(=O)c(-c3nc4ccccc4[nH]3)coc2c(CN2CCCC(C)C2)c1O (centres undefined)	1	.	.	1	.
Cc1nn(-c2ccccc2)c(OC(=O)c2cccs2)c1S(=O)(=O)c1ccccc1	2	.	.	-2	.
Cc1oc2c(CN3CCOCC3)c(O)ccc2c(=O)c1-c1ccc(Br)cc1	1	i	i	1	i
COc1ccc(-c2nnc(SCC(=O)NC3CCCCC3)o2)cc1OC	1	.	.	3	.
O=C(CN1CCSCC1)N1CCc2[nH]c3ccc(Br)cc3c2C1	6	i	i	-2	i
COCCOC(=O)C1=C(C)N=C2SCCC(=O)N2C1c1cccc(Br)c1 (centres undefined)	-3	.	.	1	.
O=C(c1cccc2c1C(=O)N(Cc1cccnc1)C2)N1CCN(c2ccccc2)CC1	10	i	i	-2	i
O=C(NCC(=O)N1CCC(N2CCCCC2)CC1)C1CCCCC1	-2	i	i	3	i
COC(=O)Nc1sccc1C(=O)Nc1sccc1C(=O)OC	-3	i	i	5	i
CC(C)(CO)NC(=O)CCCOc1ccc(Cl)cc1Cl	-8	i	i	-5	i
N#Cc1c(SCC(N)=O)nsc1SCc1ccccc1Cl	-5	.	.	-4	.
O=C(N1CCOCC1)C(F)(F)C(=O)N1CCOCC1	-1	.	.	-1	.
COc1ccccc1NC(=O)CN(c1ccc(C)cc1)S(=O)(=O)c1c(C)n[nH]c1C	-3	.	.	2	.
CCOC(=O)CN1CC23C=CC(O2)C(C(=O)Nc2ccc4c(c2)OCO4)C3C1=O (centres undefined)	-3	.	.	-5	.
Cc1ccc(-c2[nH]n3c(=O)c4c(nc3c2C)CCCC4)cc1	-1	.	.	2	.
Cc1noc(C)c1S(=O)(=O)Nc1ccc(C(=O)NC2CCCCC2)cc1	-4	.	.	-26	.
O=C(c1ccco1)N1c2ccccc2Sc2ccccc21	-6	.	.	-10	.
CCN1C(=O)/C(=C2\SC(=S)N(CC3CCCO3)C2=O)c2ccccc21 (centres undefined)	-1	.	.	8	.
Cc1ccc(S(=O)(=O)NC(CN2CCOCC2)=NCCNS(=O)(=O)c2ccccc2)cc1	-2	.	.	1	.
COC(=O)C1=C(C)NC2=C(C(=O)CCC2)C1c1coc2ccccc2c1=O (centres undefined)	-1	i	i	1	i
Cc1cc(C)nc(SC2=CS(=O)(=O)c3ccccc32)n1	-1	i	91*	-1	100%
O=C1c2ccccc2C(=O)N1Cc1nc2ccccc2c(=O)n1CCN1CCOCC1	5	i	i	-1	i
COc1ccc(NS(=O)(=O)c2ccc3c(c2)oc(=O)n3C)c(OC)c1	2	.	.	-3	.
CCOC(=O)c1c(-c2ccccc2)c(C(C)=O)c(=O)n(C)c1C	-6	.	.	6	.
CC1CCCC(C)N1CCNC(=O)Cn1nc(-c2ccccc2)ccc1=O (centres undefined)	2	.	.	-2	.

Copied from the listing (3 entries):
Compound	FPR binder	VCAM-1 augmentation	VCAM-1 down	FPRL1 binder	VCAM-1 down imaging
COc1ccc(/C(O)=C2/C(=O)C(=O)N(CC3CCCO3)C2c2cccc(OC)c2)cc1 (centres undefined)	6	i	i	-2	i
CCOC(=O)N1CCN(C(=O)c2ccc(S(=O)(=O)c3ccc(C)cc3)c(NC(C)=O)c2)CC1	-7	.	.	-1	.
CCOC(=O)c1sc2nc(N3CCCC3)c3c(c2c1N)CC(C)(C)OC3	5	i	i	-3	i

Continuation.
Compound	FPR binder	VCAM-1 augmentation	VCAM-1 down	FPRL1 binder	VCAM-1 down imaging
COc1cccc(C(CC(=O)NCC2CCCO2)NS(=O)(=O)c2ccc(C)cc2)c1OC (centres undefined)	5	.	.	-1	.
O=C(CCCCCNc1nc(=S)[nH]c2ccccc12)N1CCN(c2ccccn2)CC1	-1	.	.	-3	.
CCOC(=O)N1CCN(c2c(NCCCOC(C)C)c(=O)c2=O)CC1	3	i	i	3	i
COc1cccc(OC)c1OCCNCCO	0	i	i	6	i
COc1ccc(C)cc1-n1nnnc1SCC(=O)NC(=O)NCc1ccco1	0	i	i	-3	i
COc1ccccc1N(CN1CCCC1=O)C(=O)COc1ccccc1	-10	.	.	7	.
CCCc1cn(S(=O)(=O)c2ccc(OC)cc2OC)nc1N	-2	i	i	3	i
COCCNC(=O)CN1CCN(C(c2ccccc2)c2ccccc2)CC1	-3	i	i	0	i
O=C(NCc1ccc2c(c1)OCO2)c1ccc2c(=O)n(C3CCCC3)c(=O)[nH]c2c1	0	.	.	6	.
C=CCn1c(-c2ccc(OC)c(OC)c2)cs/c1=N\c1ccccn1	8	.	.	1	.
OCCOCCn1c(-c2ccccc2)nc(=S)c2c1CCCC2	2	.	.	0	.
O=C(O)c1[nH]c2ccccc2c1CC(=O)N1CCOCC1	-2	.	.	-2	.
Cc1cc(/C=N/n2cnnc2)c(C)n1-c1cccc(Cl)c1	2	i	i	-1	i
Cc1cc(C(=O)N2CCCc3ccccc32)no1	-3	i	i	3	i
O=C(C1CCN(S(=O)(=O)c2cccc3cccnc23)CC1)N1CCN(c2ccc(Cl)cc2)CC1	11	.	.	0	.
O=C1CCc2cc(S(=O)(=O)NC(Cc3ccccc3)C(=O)NCC3CCCO3)ccc2N1 (centres undefined)	3	.	.	8	.
CCCCCCCCNC(C)C(O)c1ccc(SC(C)C)cc1 (centres undefined)	3	i	i	-2	i
CN(CCCNC(=O)Cn1cc2c(n1)CCCC2)C1CCCCC1	-10	.	.	5	.
O=C(CSc1nnc(-c2ccncc2)n1-c1ccc(F)cc1)NC(=O)NCc1ccco1	-2	i	i	-4	i
CCOc1ccccc1NC(=O)CCC(=O)O	16	.	.	0	.
O=C(CSc1nnc2ccccn12)NCCN1C(=O)CSC1=O	1	i	i	1	i
CCN(CC)c1ccc2c(c1)C(=O)N(C)C2=O	14	i	i	8	i
O=C(NCCc1ccc(Cl)cc1)c1nnc(Cc2ccc(Cl)cc2)o1	-3	.	.	1	.
O=C(C1CCCN(c2nnc(-n3cccc3)s2)C1)N1CCN(c2ccccc2)CC1 (centres undefined)	0	.	.	-3	.
Nn1c(SCC(=O)Nc2ccccc2)nnc1-c1cccnc1	-7	i	i	9	i
O=c1cc(N2CCc3ccccc3C2)[nH]c(=O)n1-c1ccc(Br)cc1	-5	.	.	-4	.
O=C(NCc1ccccc1)c1cc(=O)nc2sc(-c3ccccc3)nn12	2	.	.	-3	.
CN(C(=O)C1CCOC1)c1nnc(-c2cccnc2)s1 (centres undefined)	-8	i	i	2	i
Cc1ccccc1CSc1nnc(C)c(=O)[nH]1	4	i	i	4	i
CCn1ccc(C(=O)Nc2ccc(S(=O)(=O)Nc3ccccc3OC)cc2)n1	4	.	.	-1	.
CN(c1ccccc1)c1nc2ccsc2c(=O)s1	4	.	.	6	.
COCC(=O)Nc1ccc(Nc2ccccc2)cc1	-4	.	.	-9	.
COc1ccc(-n2c(Cc3cccn3C)nnc2SCC(=O)Nc2cc(C)cc(C)c2)cc1	-4	.	.	-5	.
O=C(CSc1nnc(Cc2ccccc2)n1C1CCCCC1)N1CCOCC1	-4	i	i	8	i
CCCCc1cc2c(c(NC(C)=O)n1)c(=O)oc1ccccc12	4	i	i	4	i
O=c1oc2ccccc2n1Cc1ccccc1Cl	-8	.	.	-4	.
CCCn1c(SCC(=O)Nc2ccccc2C(=O)OCC)nc2c1c(=O)n(C)c(=O)n2C	0	i	i	0	i
CCN(CC)CCOC(=O)C1(C2CCCCC2)CCCCC1	2	i	i	-3	i
Cc1c(C(=O)N2CCN(c3ncccn3)CC2)sc2nc3n(c(=O)c12)CCCC3	1	.	.	6	.
COc1cc2nc(C3CCC3)n(NC(=O)C3CCCC(OC)C3)c(=O)c2cc1OC (centres undefined)	4	i	i	13	i
Cc1csc(NC(=O)C(NS(=O)(=O)c2ccc(Br)s2)c2ccccc2)n1 (centres undefined)	3	.	.	-4	.
O=C(C1CCC(=O)N1Cc1ccccc1Cl)N1CCN(c2ccc(F)cc2)CC1 (centres undefined)	1	.	.	-1	.
COc1ccc(CCNc2oc(COc3ccc(Br)cc3)nc2C#N)cc1OC	25	.	.	9	.
O=C(CN1C(=O)C2C3C=CC(C3)C2C1=O)NCCc1ccccc1Cl (centres undefined)	-1	.	.	13	.
O=C(Nc1cccnc1)Nc1ccccn1	0	i	i	6	i
COc1ccc(NC(=O)CSC2=C(C#N)C(c3ccco3)C3=C(CCCC3=O)N2)c(OC)c1 (centres undefined)	1	i	i	-3	i
Cc1ccc(NC(=O)CCNS(=O)(=O)c2ccc3c(c2)oc(=O)n3C)cc1C	-4	.	.	4	.
COC(=O)c1cn(NC(=O)c2cnccn2)c(=O)c2ccccc12	-4	.	.	3	.
CN(C)C(C(=O)NC1CCCCC1)c1ccc(Cl)cc1 (centres undefined)	-5	.	.	1	.
Cn1c(C(=O)O)c(CC(=O)NCc2cccnc2)c2ccccc21	2	.	.	-14	.
O=C(CSc1nnc(CNC(=O)c2cccs2)o1)Nc1ccc2c(c1)OCO2	3	.	.	-4	.
CC1CCc2nn(CC(=O)NC3CCCC3)cc2C1 (centres undefined)	9	.	.	7	.
COCc1cc(C)nc(SCC(=O)Nc2cc3c(cc2C#N)OCO3)c1C#N	0	.	.	1	.

High-throughput results: PubChem BioAssay, several laboratories

An excerpt; the hit share may differ from the screen's.
